# Screening results (PubChem BioAssay)
# miR-21 reporter – miR-21 reporter, rising signal | 340,000 tested, under 10 active | AID 2288 | HeLa miR-21 FLuc reporter, luciferase, 48 h | Potency, µM (titrated, usually from 38.3 µM), without a hit: at the highest dose reporter change, positive = more light; active = well fitted rising curve with a large enough effect; inconclusive = small, poorly fitted or top-dose-only effect; inactive = no such curve, though single readings can be large or run the other way;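 further: % of control where 0% means no effect; miR-21 action dims this reporter so a rising signal means less miR-21 action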
#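 HeLa miR-21-FLuc reporter line, endogenous miR-21; 2000 cells/well in DMEM/10% FBS; compound titration up to ~40uM final, 48 h, 37 degree Celsius; luciferase detection reagent, 15 min lysis, CCD luminescence.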
# Active calls of the source: *; ? = inconclusive. The list is partial; the hit share may differ from the screen's.
miR-21 reporter | SMILES
7.6% | COc1cc(C(=O)NCCS(=O)(=O)N2CCN(c3ccccc3)CC2)cc(OC)c1OC
-0.1% | COc1ccc(-c2cn3c(n2)sc2cc(C(=O)Nc4cc(Cl)ccc4C)ccc23)cc1
12.4% | Fc1ccc(CNc2nc(-c3ccc(Cl)cc3)cc(C(F)(F)F)n2)cc1
5.0% | COc1ccc2c(c1)c1c(c(=O)n(-c3ccccc3C)c(=O)n1CC(N)=O)n2C
-11.8% | COc1ccc(/C=C/C(=O)Nc2ccc(Cl)c(Cl)c2)cc1
-6.1% | CCOc1ccc(CN2C(=O)C(=O)c3cccc(C)c32)cc1OC
-10.2% | COc1cc2nc(SCc3ccc(Cl)cc3)n3nc(CCn4nc(C)cc4C)nc3c2cc1OC
8.8% | CCOC(=O)c1cc(-c2ccc(F)cc2)n(CCC(=O)NCCc2ccc(C)cc2)c1C
-4.2% | COc1ccc(-c2nn3c(-c4ccc(C)cc4)nnc3c3ccccc23)cc1
-3.0% | Cc1ccc(N2CCN(C(=O)c3noc4c3COc3ccc(C)cc3-4)CC2)c(C)c1
-2.0% | Cc1cccc(-c2nc3c(c(SCc4ccccc4Cl)n2)Cc2c(CO)cnc(C)c2O3)c1
0.4% | O=C(CSc1n[nH]c(-c2ccccc2Cl)n1)NCCc1ccccc1
-1.1% | Cc1ccc(OCCSc2nc3ccc(NC(=O)COc4ccc(F)cc4)cc3s2)cc1
18.3% | COc1cccc(CNC(=O)C2CCC(CNS(=O)(=O)c3ccc(Br)s3)CC2)c1 (stereo not drawn)
-20.4% | CCOC(=O)c1noc2ncnc(N3CCC(C)CC3)c12
? | CCCC1=Nc2cc(C(=O)NC3CCCC3)ccc2Sc2ccc(C)cc21
1.2% | O=C(c1ccc([N+](=O)[O-])cc1)N1c2ncnn2C2(CCCCC2)[C@@H]2CCCC[C@@H]21
? | COc1cccc(-c2nc(SCC(=O)NC3CCCC3)c(-c3ccc(C)cc3)[nH]2)c1
-1.0% | O=C(NCc1ccccc1)c1ccc(CSc2nc3cccnc3n2Cc2cccc(F)c2)cc1
-0.8% | CCCN(CCC)CCNC(=O)Cn1ncc2c([nH]c3ccc(C)cc32)c1=O
9.5% | COc1cccc(NC(=O)CSc2nc(=O)[nH]c3c2CCCC3)c1
-1.7% | CCOc1ccc(C(=O)Nc2cc(-c3cn4cccnc4n3)ccc2C)cc1OCC
-3.4% | COc1cccc(-c2nc3c(C#N)c[nH]n3c2NC2CCCCC2)c1OC
? | CC1CCN(S(=O)(=O)c2ccc3nc(Nc4ccc(C#N)cc4)ccc3c2)CC1
-3.7% | C=Cc1ccc(CSc2nc(-c3ccc(OC)cc3)nc3c2Cc2c(CO)cnc(C)c2O3)cc1
-2.9% | COc1ccc(NC(=O)CCc2c(C)nc3nc(CNC(=O)OC(C)(C)C)nn3c2C)cc1OC
-0.7% | CCC(=O)C1=C(c2cccc([N+](=O)[O-])c2)N(C(=O)CC)n2c(nnc2-c2ccccc2)S1
-0.2% | CC1=C(C(=O)Nc2ccccc2)C(c2cccn2C)n2ncnc2N1 (stereo not drawn)
0.3% | Cc1ccc(C)c(N2CCN(S(=O)(=O)c3ccc4oc(=O)c5ncn(C)c5c4c3)CC2)c1
-0.4% | COc1ccc(Cn2c(SCC(=O)NCc3ccc(Cl)cc3)nc3ccsc3c2=O)cc1
-8.3% | CCCc1c(C(=O)OCC)nnc2c(-c3ccccc3)c(C)nn12
-51.9% | Cc1ccccc1OCc1nc2c3cnn(-c4ccccc4F)c3ncn2n1
-5.9% | COCCNC(=O)c1ccc(-n2c(-c3ccccc3)cc3c2CCCCC3)cc1
-2.5% | CC1CCCN(S(=O)(=O)c2cc(C(=O)NCCc3ccccc3)n(C)c2)C1 (stereo not drawn)
-1.7% | CCc1ccccc1N(CC)C(=O)c1c(C)oc2ncn(C)c(=O)c12
5.3% | CCN(CC)S(=O)(=O)c1ccc2c(c1)N(CC(=O)N1CCN(c3cccc(C)c3)C(C)C1)C(=O)CO2 (stereo not drawn)
-4.0% | CCOc1ccc(-n2c(CCC(=O)O)ccc2-c2ccc(Br)cc2)cc1
-1.9% | Cc1cc2oc(=O)c(CC(=O)NCCc3ccccc3F)c(C)c2c2occ(C(C)(C)C)c12
-35.9% | NC(=O)CSc1nc2ccc(NC(=O)COc3ccccc3Cl)cc2s1
? | COc1cc(OC)cc(C(=O)Nc2ccc3nc4c(c(Nc5ccc(OC)c(OC)c5)c3c2)CCCC4)c1
0.0% | CC(C)c1ccc2c(c1)NC(c1ccc(F)cc1)=NC(c1cccs1)=N2
4.6% | CC1=C(C(=O)Nc2cccnc2)C(c2ccc(F)cc2)n2nc(SCc3ccccc3F)nc2N1 (stereo not drawn)
-0.8% | CCCOc1ccc(C(=O)Nc2ccc(NC(=O)c3cccc(Cl)c3)cc2)cc1
0.3% | Cc1ccc(OCc2nc(-c3ccc(C(=O)N4CCN(c5ccccc5)CC4)cc3)oc2C)cc1
-1.0% | O=C(NCc1nc2ccccc2n1Cc1ccccc1Cl)c1ccccc1
? | CC(=O)N1CCCC1c1nc2ccccc2n1Cc1ccccc1C (stereo not drawn)
17.3% | CC(C)c1nn2c(=O)cc(COC(=O)c3ccc(NC(=O)C4CCCCC4)cc3)nc2s1
10.2% | CS(=O)(=O)c1ncc(N(Cc2ccco2)Cc2ccco2)c(C(=O)Nc2ccccc2Br)n1
-6.5% | COc1ccc(C(=O)COC(=O)C(Cc2c[nH]c3ccccc23)NC(=O)c2ccc(C(C)(C)C)cc2)cc1 (stereo not drawn)
-0.9% | CC(C)CCNC(=O)CN1C(=O)CSc2ccc(S(=O)(=O)N3CCC(C)CC3)cc21

# Later entries.
miR-21 reporter | SMILES
-1.8% | CC1=C(c2ccc(C)c(C)c2)S(=O)(=O)N=C1N1CCC(C(=O)N2CCC(C(N)=O)CC2)CC1
2.1% | CCc1ccc(NC(=O)c2sc3ncnc(N(C)C4CCCCC4)c3c2C)cc1
4.4% | COCCOC(=O)c1c(-c2ccccc2)c(-c2ccccc2)nn(C)c1=O
-10.4% | CCn1cc(C(=O)NCc2ccccc2OC)c(=O)c2cc(S(=O)(=O)N3CCCCC3)ccc21
-6.7% | Cc1ccc(NC(=O)CN2C(=O)CSc3ccc(S(=O)(=O)N(C)C)cc32)cc1C
-14.7% | COc1ccc(NC(=O)Cn2c(=O)c3cc(Cl)ccc3n3nncc23)cc1
-3.3% | O=C(CN1C(=O)CCc2cc(S(=O)(=O)N3CCOCC3)ccc21)Nc1cccc(C(F)(F)F)c1
-6.6% | COc1ccc(CNC(=O)Cn2nnc(-c3ccc(C(F)(F)F)cc3)n2)cc1
-0.6% | Cc1[nH]c2ccccc2c1C1(O)C(=O)Nc2ccc(Cl)cc21 (stereo not drawn)
-0.6% | COCCCNC(=O)CSc1nc2cc3c(cc2c(=O)n1CCCCCC(=O)NCc1ccc2c(c1)OCO2)OCO3
-1.4% | CCCCc1ccc(NC(=O)Cn2nnc3sc4c(c3c2=O)CCC(C)C4)cc1 (stereo not drawn)
? | COc1ccc(N2CCN(C(=O)C(C)n3nc(C)c4sc5ccccc5c4c3=O)CC2)cc1 (stereo not drawn)
7.8% | CCOc1ccc(CNC(=O)CSc2c3c(nc4cc(Cl)ccc24)CCCC3)cc1
-6.1% | CCOc1ccc(CCNC(=O)CCSCc2cccc(Cl)c2)cc1OCC
-0.1% | CC(C)Oc1ccc(CNC(=O)CCCN2C(=O)CCn3nc(-c4cccn4C)cc32)cc1
-3.5% | Cc1ccc2nc(CSc3nnc(NC(=O)c4ccc(C(C)(C)C)cc4)s3)cc(=O)n2c1
-0.5% | O=C(NCCC1=CCCCC1)C1CCN(C(=O)N2CCOc3ccccc32)CC1
-1.5% | CCCCNC(=O)CSc1nc2cc3c(cc2c(=O)n1CCCC(=O)NCc1ccc2c(c1)OCO2)OCO3
-32.6% | CC(NC(=O)c1ccc(NC(=O)c2nsc3ccccc23)cc1)c1ccccc1 (stereo not drawn)
18.8% | O=C(CSc1nccn1C1CCCC1)Nc1ccc(C(F)(F)F)cc1
-3.3% | CCC(=O)Nc1ccc(-c2nnc3c4ccccc4c(C)nn23)cc1
3.7% | COc1cc(-c2nc(Cn3nnc(C(=O)Nc4ccc(C)cc4C)c3C)c(C)o2)cc(OC)c1OC
? | CCC1CCCCN1C(=O)CSc1nc(-c2ccc(OC)cc2)cc(C(F)(F)F)n1 (stereo not drawn)
-31.5% | Cc1c(CCNC(=O)Cc2ccccc2)sc2nc(-c3ccc(F)cc3)nn12
0.0% | CCc1cnc2c(c1SCC(=O)NCc1ccc(F)cc1)c(=O)n(C)c(=O)n2C

# In the list so far, these contain a tert-butyl group.
miR-21 reporter | SMILES
-2.9% | COc1ccc(NC(=O)CCc2c(C)nc3nc(CNC(=O)OC(C)(C)C)nn3c2C)cc1OC
-1.9% | Cc1cc2oc(=O)c(CC(=O)NCCc3ccccc3F)c(C)c2c2occ(C(C)(C)C)c12
-6.5% | COc1ccc(C(=O)COC(=O)C(Cc2c[nH]c3ccccc23)NC(=O)c2ccc(C(C)(C)C)cc2)cc1 (stereo not drawn)
-3.5% | Cc1ccc2nc(CSc3nnc(NC(=O)c4ccc(C(C)(C)C)cc4)s3)cc(=O)n2c1

# Reprinted at random: 6 entries already listed.
miR-21 reporter | SMILES
-0.5% | O=C(NCCC1=CCCCC1)C1CCN(C(=O)N2CCOc3ccccc32)CC1
-2.5% | CC1CCCN(S(=O)(=O)c2cc(C(=O)NCCc3ccccc3)n(C)c2)C1 (stereo not drawn)
-1.7% | CCOc1ccc(C(=O)Nc2cc(-c3cn4cccnc4n3)ccc2C)cc1OCC
18.8% | O=C(CSc1nccn1C1CCCC1)Nc1ccc(C(F)(F)F)cc1
? | CC(=O)N1CCCC1c1nc2ccccc2n1Cc1ccccc1C (stereo not drawn)
? | COc1cc(OC)cc(C(=O)Nc2ccc3nc4c(c(Nc5ccc(OC)c(OC)c5)c3c2)CCCC4)c1

# Going on with the list:
miR-21 reporter | SMILES
19.9% | Cc1ccc(Cl)cc1-n1ncc2c(Nc3cccc(C)c3C)ncnc21
-6.3% | Cc1ccc2nc(N(Cc3cccnc3)C(=O)C3CCCCC3)sc2c1
-2.5% | Cc1nn(-c2ccccc2)c(OC(=O)c2ccc(F)cc2)c1S(=O)(=O)c1ccccc1
1.2% | COc1ccc(NC(=O)CSc2ncc3c(n2)-c2cc(Cl)ccc2N(Cc2ccccc2F)S3(=O)=O)cc1
14.8% | CCCn1c2ccccc2c2cnn(CC(=O)N(CCCOC)Cc3ccco3)c(=O)c21
-0.7% | Cc1nnc(N2CCC(C(=O)NC3CCCCC3)CC2)c2nn(-c3ccc(Cl)cc3)c(C)c12
9.6% | COc1cc(C)cc2oc(=O)c(CC(=O)NCc3cccc(Cl)c3)c(C)c12
-8.1% | Cc1ccc(-n2nc3ccc(NC(=O)COc4ccccc4C)cc3n2)cc1
26.2% | CCc1cccc(NC(=O)C(Cc2ccccc2)NS(=O)(=O)c2cccs2)c1 (stereo not drawn)
0.6% | Cc1cc(C)cc(N2C(=O)CS(=O)(=O)C23C(=O)N(Cc2ccc(F)cc2)c2ccc(C)cc23)c1 (stereo not drawn)
27.1% | O=C(Nc1ccccc1)c1cnc(N2CCCCC2)c2ccccc12
6.9% | COc1cccc(C2CC(=O)Nc3c2ccc(C)c3C)c1OC (stereo not drawn)
2.5% | Cc1ccc(NC(=O)CCn2nc(-c3ccccc3)c3ccccc3c2=O)c(C)c1
-1.2% | CCCCCNC(=O)C1CCC(Cn2c(=O)c3sccc3n(CC)c2=O)CC1 (stereo not drawn)
8.6% | Cc1ccccc1Nc1nnc(-c2ccc(C)c(S(=O)(=O)N3CCN(C)CC3)c2)c2ccccc12
-15.7% | O=c1ccc2cc(S(=O)(=O)Nc3ccc(OC(F)(F)F)cc3)ccc2[nH]1
14.7% | CNC(=O)c1c[nH]c2ccc(S(=O)(=O)Nc3cccc(Cl)c3C)cc2c1=O
15.5% | CCc1ccc(CNC(=O)c2ccc(NC(=O)N3CC(C)Sc4ccccc43)cc2)cc1 (stereo not drawn)
22.7% | CCOc1cccc(CC(=O)N2CCc3c([nH]c4ccccc34)C2c2ccc(OC)cc2)c1OCC (stereo not drawn)
-6.9% | CCOc1cc2[nH]c(=O)n(CCCCC(=O)N3CCN(c4ccccc4)CC3)c(=O)c2cc1OCC
-3.6% | Cc1cc(C)c(NC(=O)CSc2nc3ccccc3c3nc(-c4ccccc4)nn23)c(C)c1
-3.3% | Cc1cc(Cl)ccc1NC(=O)CN1C(=O)CSc2ccc(S(=O)(=O)N(C)C)cc21
2.1% | CC(=O)N1CCc2cc(Br)cc(S(=O)(=O)CCC(=O)N3CCN(c4ccccc4)CC3)c21
2.8% | CCCCCNC(=O)C1CCC(Cn2c(=O)c3sccc3n(CC(=O)NCc3cccc(OC)c3OC)c2=O)CC1 (stereo not drawn)
-0.9% | CCn1ccc2cc(S(=O)(=O)N3CCC(C(=O)NCC(C)c4ccccc4)CC3)ccc21 (stereo not drawn)
-9.6% | CCCS(=O)(=O)NCCc1csc2nc(-c3ccc(OC)cc3)nn12
-5.9% | CCOc1ccccc1CN1C(=O)c2ccccc2C1C(=O)NC1CCCCCC1 (stereo not drawn)
-4.5% | COCCCNC(=O)CSc1nc(-c2ccc(OC)c(OC)c2)[nH]c1-c1ccc(F)cc1
2.7% | COc1cc(NC(=O)CCNS(=O)(=O)c2ccc3c(c2)CCN3C(=O)C2CC2)cc(OC)c1
24.2% | Cc1ccc(S(=O)(=O)N2CCOCC2)cc1C(=O)Nc1ccccc1C(=O)O
-19.2% | Cc1ccc2nc(-c3ccc(Cl)c(NC(=O)COc4ccc([N+](=O)[O-])cc4)c3)oc2c1
-0.6% | Cc1ccc(CNC(=O)CCCn2c(=O)c3ccccc3n(CC(=O)Nc3ccc(C)c(C)c3)c2=O)cc1
-2.5% | COc1ccc2c(c1)cc1c(=O)n(CC(=O)NCc3ccco3)nc(C)n12
-4.2% | CCc1ccc(NC(=O)c2sc(-n3nc(C)c(CCC(C)C)c3C)nc2C)cc1
-1.1% | CCN(CC)CCCNC(=O)CN1C(=O)CCn2nc(-c3cn(C)c4ccccc34)cc21
-13.2% | Cc1ccccc1NC(=O)CSc1nc(-c2cccs2)nc2cc(=O)[nH]n12
